# Assay outcomes as filed in PubChem.
# Mtb H37Rv: Confirmatory growth inhibition assay against Mycobacterium tuberculosis H37Rv, potency (AID 1949) | most inactive calls were filed without a number and no value below 0 was filed | inhibition, % at 10 µg/mL; hits with a dose series show IC50 in µg/mL | 100,000 tested, 1.6% active;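 active means confirmed in a dose series; inconclusive means about 50% or more but not retested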;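 further: bacteria grown 7 days with compound before Alamar blue readout; 0% = untreated bacteria and 100% = reference antibiotic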
# Starred values were filed as active, the others as inactive; i = inactive; ? = inconclusive. Only part of the results is shown; the hit share may differ from the screen's.
SMILES,Mtb H37Rv
COc1ccc(NC(=O)C2CCC(=O)N2S(=O)(=O)c2ccc(C)cc2)c(OC)c1 (stereo unspecified),i
Nc1cc(C(=O)N2CCCC2)cc(C(=O)N2CCCC2)c1,i
CCc1ccc(CCC(=O)Nc2ccc(Cl)cc2Cl)o1,4%
Cc1cccnc1Nc1nc(-c2ccncc2)cs1,i
COc1ccc(NC(=O)c2sc3cc(Cl)ccc3c2Cl)c([N+](=O)[O-])c1,i
Cc1ccc(C)n1NC(=O)c1ccco1,i
CC(C)OC1(c2ccccc2)OC(=O)c2ccccc21 (stereo unspecified),4%
COc1ccc(OC)c(S(=O)(=O)Nc2cccc3ccccc23)c1,i
O=C(O)CCCNS(=O)(=O)c1ccc(C(=O)O)cc1,i
OCCNc1nc2ccc(Cl)cc2[nH]1,i
Cc1ccc(NC(=S)N2CCN(c3ccccn3)CC2)cc1C,i
CCc1ccc(N(CC(=O)NCc2ccc(Cl)cc2Cl)S(C)(=O)=O)cc1,i
COC(=O)c1cc(-c2ccc(Cl)cc2Cl)nc2ccccc12,i
CCn1c2ccccc2c2nnc(SCCN3CCOCC3)nc21,i
Cc1ccc(C(=O)O)cc1NC(=S)NC(=O)c1ccc(F)cc1,i
COc1ccc(Br)cc1C(=O)Nc1nccs1,31%
CCc1ccc(NC2=NC(C(=O)c3ccccc3)CC(=O)N2)cc1 (stereo unspecified),i
COc1cccc(NC(=S)Nc2cccnc2)c1,i
Cc1cc(OC(C)C(=O)Nc2ccc(S(=O)(=O)Nc3ncccn3)cc2)ccc1Cl (stereo unspecified),i
Cc1ccccc1N1C(=O)NC(=O)/C(=C\c2ccc(O)c(O)c2)C1=O,2%
CN1CCN(C(=O)C(NC(=O)c2ccc(Cl)cc2)C23CC4CC(CC(C4)C2)C3)CC1 (stereo unspecified),i
CCOC(=O)c1cnc2ccc(C(=O)OC)cc2c1Nc1cccc(C(=O)OC)c1,i
Cn1c(Cc2ccccc2)nnc1SCC(=O)Nc1ccc(Cl)c(C(F)(F)F)c1,i
COc1ccc(NC(=O)c2oc3ccccc3c2C)cc1OC,1%
CCC(=O)Oc1cccc(C(=O)Nc2cccc(C(=O)NC(C)(C)C)c2)c1,i
O=C(O)C1C2C=CC(C2)C1C(=O)Nc1cccc(F)c1 (stereo unspecified),i
O=C(Nc1ccc(S(=O)(=O)Nc2nccs2)cc1)C1(c2ccc([N+](=O)[O-])cc2)CCCC1,i
Nc1ccccc1-c1nc2ccccc2[nH]1,?
CCOC(=O)C1=C(C)NC(=O)NC1c1cc(OC)c(OC(C)C)cc1Br (stereo unspecified),0%
Cc1ccc2oc(-c3cc(NC(=S)NC(=O)c4cncc(Br)c4)ccc3O)nc2c1,i

# By substructure: the entries above containing a Cl atom
SMILES,Mtb H37Rv
CCc1ccc(CCC(=O)Nc2ccc(Cl)cc2Cl)o1,4%
COc1ccc(NC(=O)c2sc3cc(Cl)ccc3c2Cl)c([N+](=O)[O-])c1,i
OCCNc1nc2ccc(Cl)cc2[nH]1,i
CCc1ccc(N(CC(=O)NCc2ccc(Cl)cc2Cl)S(C)(=O)=O)cc1,i
COC(=O)c1cc(-c2ccc(Cl)cc2Cl)nc2ccccc12,i
Cc1cc(OC(C)C(=O)Nc2ccc(S(=O)(=O)Nc3ncccn3)cc2)ccc1Cl (stereo unspecified),i
CN1CCN(C(=O)C(NC(=O)c2ccc(Cl)cc2)C23CC4CC(CC(C4)C2)C3)CC1 (stereo unspecified),i
Cn1c(Cc2ccccc2)nnc1SCC(=O)Nc1ccc(Cl)c(C(F)(F)F)c1,i

# Quoted at random: eight entries already listed, in no set order.
SMILES,Mtb H37Rv
OCCNc1nc2ccc(Cl)cc2[nH]1,i
CCc1ccc(NC2=NC(C(=O)c3ccccc3)CC(=O)N2)cc1 (stereo unspecified),i
CCc1ccc(N(CC(=O)NCc2ccc(Cl)cc2Cl)S(C)(=O)=O)cc1,i
Nc1ccccc1-c1nc2ccccc2[nH]1,?
CC(C)OC1(c2ccccc2)OC(=O)c2ccccc21 (stereo unspecified),4%
COc1ccc(NC(=O)c2oc3ccccc3c2C)cc1OC,1%
CCn1c2ccccc2c2nnc(SCCN3CCOCC3)nc21,i
CCOC(=O)c1cnc2ccc(C(=O)OC)cc2c1Nc1cccc(C(=O)OC)c1,i

# Following part
SMILES,Mtb H37Rv
CNS(=O)(=O)c1ccc(OC)c(C)c1,i
COc1ccc(OC)c(NC(=O)CSc2nnc(CCCO)n2-c2ccccc2)c1,i
CCn1c(CNC(=O)c2ccco2)nnc1SCC(=O)Nc1cc(C)c(C)cc1Br,i
CCSc1ccccc1C(=O)Nc1ccc(S(=O)(=O)Nc2ccc(C)cc2)cc1,i
CCOc1ccc(NC(=O)CSc2nnc(Cc3ccccc3)n2-c2ccc(F)cc2)cc1,i
O=C(CCc1ccccc1)NC(=S)NCc1ccc2c(c1)OCO2,1%
O=C(O)C1CCCN(S(=O)(=O)c2cc(Cl)ccc2Cl)C1 (stereo unspecified),i
Cc1ccccc1N(CC(=O)NC(C(C)C)C(C)C)S(C)(=O)=O,3%
COc1ccc(NC(=O)c2ccccc2Sc2ccccc2C#N)cc1OC,9%
COC(=O)c1c(-c2cccs2)csc1N,i
COc1cc2c(cc1OC)C(c1ccccc1C)CC(=O)N2 (stereo unspecified),i
Cc1ccc(NC(=O)C(C)Oc2ccccc2)c(C(=O)O)c1 (stereo unspecified),i
Cc1ccccc1CNC(=O)C(=O)Nc1ccc(Cl)cc1,i
CC(NC(=O)c1ccccc1Br)c1ccc2c(c1)CCCC2 (stereo unspecified),i
CCCCOc1ccc(N2CC(C(=O)NCc3ccco3)CC2=O)cc1 (stereo unspecified),i
O=C(CSCc1ccc(Cl)cc1Cl)Nc1ccc(-c2nnc(-c3ccccc3)o2)cc1,1%
Fc1ccccc1Nc1ncnc2c1oc1ccccc12,21%
O=C(O)C1CCN(C(=O)Cc2ccccc2)CC1,i
Cc1ccc(S(=O)(=O)N2CCC(C(=O)NC3CC3)CC2)cc1,i
COC(=O)c1c(-c2cc(C)ccc2C)csc1NC(=O)C1CC=CCC1C(=O)O (stereo unspecified),i
Cc1ccc(SCC(=O)NNC(=O)c2cccs2)cc1,i
CCOC(=O)c1ccc(NC(=S)N2CCN(Cc3ccc(Cl)c(Cl)c3)CC2)cc1,i
COc1ccc2c(=O)c(Oc3ccc(C)cc3)coc2c1,i
Cn1c(SCC(=O)c2ccc3c(c2)Cc2ccccc2-3)nnc1-c1ccccc1,2%
O=c1[nH]c(CN2CCNCC2)nc2ccccc12,i
Cc1cc(C)c(S(=O)(=O)Nc2nnc(C)s2)c(C)c1,11%
O=C(O)CCc1ccc(-c2cccs2)n1-c1ccccc1F,i
Cc1c(C(=O)NC2=NCCS2)oc2ccccc12,i
COc1cccc(C(=O)Nc2nnc(CC(C)C)s2)c1,4%
COc1ccc(C(=O)NC(=S)Nc2ccccc2C(=O)NC2CCCCC2)cc1,i
CCOc1ccc(-n2c(SCC(=O)NCc3ccccc3)nnc2-c2ccccc2)cc1,0%
Cn1c(SCC(=O)N2CCc3ccccc32)nnc1-c1c[nH]c2ccccc12,i
CCOc1ccc(N(CC(=O)N2CCN(c3ccccc3OC)CC2)S(C)(=O)=O)cc1,i
COc1cc(Cl)ccc1S(=O)(=O)n1nnc2ccccc21,i
COc1ccc2c([N+](=O)[O-])c(NCc3ccccc3)[nH]c2c1,2%
CCN(CC)CCCN1C(=O)C(O)=C(C(=O)c2ccc(C)o2)C1c1cccs1 (stereo unspecified),i
CCOCC(=O)N1CC(C)OC(C)C1 (stereo unspecified),i
O=C(NCc1ccncc1)C(=O)Nc1cccc(Cl)c1,i
COc1ccc(OC)c(NS(=O)(=O)c2ccc(Br)s2)c1,i
Cc1ccc(C2C(C#N)=C(SCC(=O)NC3CCCCC3)NC3=C2C(=O)CC(C)(C)C3)o1 (stereo unspecified),i
Cc1cc(C)c(S(=O)(=O)N2CCN(c3ccc(F)cc3)CC2)cc1C,11%
Cc1ccccc1C(=O)Nc1sc2c(c1C(=O)O)CCC2,10%
O=C(Cc1ccccc1)Nc1cccc(OCC(=O)N2CCOCC2)c1,i
O=C(CN(c1ccc(Cl)c(C(F)(F)F)c1)S(=O)(=O)c1ccccc1)N1CCCC1,i
CCOC(=O)c1ccc(COC(=O)c2ccc(NC(=O)CC)cc2)cc1,35%
O=C(c1ccc(O)cc1O)c1ccc(O)cc1O,i
O=C(CSc1ccccn1)c1ccc2c(c1)OCO2,i
CC(=O)c1cccc(NC(=S)NCCn2cc(Cl)cn2)c1,i
COc1ccc(C(=O)NC(=S)N2CCN(C/C=C/c3ccccc3)CC2)cc1OC,i
Cc1sc(NC(=S)NC(=O)COc2ccc(Br)cc2Cl)c(C(N)=O)c1C,i

# (listing goes on)
SMILES,Mtb H37Rv
Cc1ccc(S(=O)(=O)NC2(C(F)(F)F)NC(=O)N(C)C2=O)cc1 (stereo unspecified),i
Cc1cc(Cl)ccc1NC(=O)COc1ccc([N+](=O)[O-])cc1,i
O=C(c1cccnc1)N1CCN(Cc2ccc3c(c2)OCO3)CC1,i
Cc1cc(I)ccc1NC(=O)c1ccc(N(C)S(=O)(=O)c2ccccc2)cc1,i
O=c1[nH]c(N2CCOCC2)nc2c1CCCC2,i
COC(=O)c1sc2cc(NC(=S)NNC(=O)c3ccc4c(c3)OCO4)ccc2c1Cl,i
C=COC(=O)CSc1nc(C)c(CC)c(C)c1C#N,i
O=C(c1cnn2c1NC(c1cccs1)CC2C(F)(F)F)N1CCc2ccccc2C1 (stereo unspecified),4%
COc1ccc2c([N+](=O)[O-])c(Sc3ccc(Cl)cc3)[nH]c2c1,48%
O=C(NN1CCOCC1)c1ccc(Br)s1,i
CC(NC(=O)C1CCCC1)c1ccc(Br)cc1 (stereo unspecified),i
CN(C)S(=O)(=O)N1CCN(C(=O)N2CCCCC2)CC1,i
CC(=O)NC(C)c1nc2ccccc2n1C (stereo unspecified),i
O=C(CSc1nnc(-c2ccncc2)n1-c1ccc(F)cc1)Nc1ccc(Br)cc1F,i
C=CCc1cccc2cc(C(=O)Nc3cccc(C)c3C)c(=O)oc12,i
CCOC(=O)Cn1cnc2sc3c(c2c1=O)CCC3,i
Cc1c(N(C)C(=O)c2ccccc2O)c(=O)n(-c2ccccc2)n1C,i
COCc1cc(C)nc(SCC(=O)OC(C)C)c1C#N,i
C=CCNC(=S)N1CCc2cc(OC)c(OC)cc2C1c1ccc(OC)c(OC)c1 (stereo unspecified),1%
Cc1cc(C)c(S(=O)(=O)NCc2ccccc2Cl)c(C)c1,22%
O=C(Nc1cccc(-c2cc3ccccc3oc2=O)c1)c1ccc2c(c1)OCO2,i
COc1ccc(-c2csc(Nc3ccc(S(=O)(=O)Nc4cc(C)on4)cc3)n2)cc1C,4%
CN(CC(=O)Nc1ccc(I)cc1)S(=O)(=O)c1ccc(F)cc1,i
O=C(Nc1ccccc1C(F)(F)F)N1CCN(Cc2ccco2)CC1,i
COC(=O)c1ccc(CSc2nnnn2-c2ccccc2)cc1,i
N/C(=N\c1nc(C(F)(F)F)cc(C(F)(F)F)n1)Nc1ccc([N+](=O)[O-])cc1,3%
CCc1ccc(S(=O)(=O)Nc2cc(SCC(=O)O)c(O)c3ccccc23)cc1,7%
O=Cc1c(N2CCCCC2)nc2ccccn2c1=O,i
Cc1ccc(S(=O)(=O)NCC(=O)NCc2ccco2)cc1,i
O=C(OCc1ccc(Cl)c(Cl)c1)c1cccc(-c2nnc(-c3ccccc3)o2)c1,i
CC(=O)c1ccc(NC(=S)N2CCC(O)CC2)cc1,i
O=C(Nc1ccc(Cl)c(Cl)c1)C1CCN(S(=O)(=O)c2ccc(Cl)cc2)CC1,i
O=C(Nc1ccc(O)cc1)N1CCCCC1,i
CC(C)COC(=O)NCc1ccc2c(c1)OCO2,i
Cc1c(NC(=O)c2ccc(F)cc2)ccc([N+](=O)[O-])c1C,5%
COCC(C)NC(=O)NC(=O)c1ccc(Cl)cc1 (stereo unspecified),i
C=C(C)Cn1c(SCC#N)nc2ccccc2c1=O,1%
O=C(NCCc1c[nH]c2ccccc12)Nc1ccc(Cl)c(Cl)c1,3.7µg/mL*
CN1CCN(c2ccc([N+](=O)[O-])c(-n3nc(-c4ccc(Cl)cc4)c4ccccc4c3=O)c2)CC1,?
Cc1ccc(S(=O)(=O)N(C)c2ccc(C(=O)NCc3cccnc3)cc2)cc1,i
Cc1nc(SCc2ccccc2)[nH]c(=O)c1C,i
C/C(=N/N1CCN(Cc2cccc3ccccc23)CC1)c1ccccc1,i
Cc1ccccc1NS(=O)(=O)c1ccc(NS(=O)(=O)c2ccc(Cl)cc2)cc1,i
CC1CCCCN1C1(O)C(=O)Nc2ccc([N+](=O)[O-])cc21 (stereo unspecified),i
O=C(NCc1ccc2c(c1)OCO2)C(=S)NCc1ccccc1,i
O=C(Nc1nc2ccc([N+](=O)[O-])cc2s1)C(Cc1ccccc1)N1C(=O)c2ccccc2C1=O (stereo unspecified),i
O=C(O)C1C2CCC(O2)C1C(=O)NCc1cccs1 (stereo unspecified),i
COc1ccc(OC)c(NC(=O)c2c(NC(=O)c3ccccc3F)sc3c2CCC(C)C3)c1 (stereo unspecified),1%
COc1cccc(Cn2cc(NC(=O)c3csc4ccccc34)cn2)c1,50%
COc1ccccc1-c1cc(-c2ccccc2)nc2sc(C(=O)NC3CC3)c(N)c12,8%

# (continued)
SMILES,Mtb H37Rv
O=[N+]([O-])c1ccc(N2CCNCC2)cc1N1CCN(c2ccccc2)CC1,i
CC(C)(C)OC(=O)NCC(=O)Oc1cc2oc(=O)c3c(c2cc1Cl)CCCC3,i
Cn1c(NC(=O)c2cccc(Cn3cc(Cl)cn3)c2)nc2ccccc21,i
O=C(NCC(=O)N1CCOCC1)c1ccc(Br)cc1,i
Cc1ccccc1-c1nc2scc(-c3cccs3)c2c(=O)o1,i
CCCC(=O)N1CCN(c2ccc([N+](=O)[O-])c(NCc3ccco3)c2)CC1,4%
COCCNc1oc(-c2ccccc2F)nc1C#N,i
Cc1cc(=O)n2[nH]c(CCc3ccccc3)nc2n1,i

# Structural class: the entries above with a tert-butyl group
SMILES,Mtb H37Rv
CCC(=O)Oc1cccc(C(=O)Nc2cccc(C(=O)NC(C)(C)C)c2)c1,i
CC(C)(C)OC(=O)NCC(=O)Oc1cc2oc(=O)c3c(c2cc1Cl)CCCC3,i
